PrP UTR inh: inhibition of PrP 5' UTR reporter expression; AID 488862, 2010; 340,000 tested, 0.35% active; cell-based PrP 5' UTR mRNA reporter, plate reader; inhibition, % (concentration not given with the values);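 active = every replicate at 50% or more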;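 also: 0 = median of the neutral control wells; tested in H4 reporter cells; numbers are from one replicate; inactives centre near -14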
RN4220 kill: growth inhibition of S. aureus RN4220, primary screen, OD600. AID 1259311, 2017. 16 h. 330,000 tested, 0.33% active. inhibition, % (concentration not given with the values);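 active = z-score of -3 or lower and OD600 up to 0.18 on both plates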;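 also: plate controls were untreated cells for no effect and reference antibiotic for full effect; stock transfer was 100 nL into about 80 µL; one replicate is shown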
ugtP null kill: growth inhibition of ugtP-null S. aureus, primary screen, RN4220 ugtP deletion, OD600; 16 h; some inactives read as strong as hits; growth inhibition, % (no concentration beside the values); 330,000 tested, 0.54% active;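 active = z-score under -3 and OD600 up to 0.15 on both plates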;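 also: plate controls were untreated wells for no effect and antibiotic for full effect; wells of about 80 µL received 100 nL stock; the first replicate is given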
BJeLR viability: MLPCN primary cell-based screen for lethality selective to Ras in HRASV12 cells; inhibition, % (concentration not given with the values); 300,000 tested, 0.17% active; BJeLR (HRASV12) viability, CellTiter-Glo ATP luminescence, 48 h; reference of the scale not given here;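 active = replicate mean above 50%; inconclusive = above 50% but judged a plate artefact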;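 also: 50 nL library stock added to about 25 µL; numbers are from one replicate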
Mtb hypoxia inh: PubChem AID 1159583 | 300,000 tested, 0.1% active | M. tuberculosis hypoxia-regulated fluorescent reporter, fluorescence | fluorescence inhibition, % (concentration not given with the values);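 active = 35 to 45% if threefold the growth effect, above 45% if 1.5-fold the growth effect; inactive = the rest, general growth blockers included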;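 also: wells of about 50 µL received 100 nL stock; 0% = vehicle wells and 100% = reference inhibitor wells; whole bacteria with a GFP reporter of the hypoxia response; strong numbers were not always called active; many hits fall short of the cut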
Autofluor counter: counter-screen for toxin protease inhibitors: compound fluorescence; compound autofluorescence counterscreen, microsphere flow cytometry; active compounds read high; fluorescence intensity (test concentration not listed); 360,000 tested, 3.1% active; AID 624483;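 active = at least 3 SD above the mean of all compounds, about 16000 in these data; inconclusive = too few beads counted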;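 also: 100 nL of 1 mM stock went into each well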
Mtb hypoxia inh growth: recorded beside Mtb hypoxia inh, whose call it bears; growth inhibition, %; measured here: M. tuberculosis growth (absorbance);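 0% = vehicle and 100% = reference antibiotic; read after six days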
Starred values were filed as active, the others as inactive; ? = inconclusive; . = no result given.

SMILES	PrP UTR inh	RN4220 kill	ugtP null kill	BJeLR viability	Mtb hypoxia inh	Mtb hypoxia inh growth	Autofluor counter
O=C(N/N=C/c1ccc2cccnc2c1)c1nc2ccccc2c(=O)[nH]1	-27	.	.	-5	.	.	6015
COc1cccc(NC(=O)CSc2nnc(-c3ccoc3C)n2CC2CCCO2)c1 (stereo unspecified)	-3	5.0	1	-4	4	13	4412
CC(Oc1ccccc1)C(=O)Nc1ccccc1O (stereo unspecified)	-25	1.7	0	4	10	7	9874
O=C1CC(NCc2ccccc2F)C(=O)N1c1ccccc1 (stereo unspecified)	-19	1.8	5	14	-1	-3	16529*
OC1CCCN(C(=S)Nc2ccc(SC(F)F)cc2)C1 (stereo unspecified)	-41	4.3	-7	-6	12	8	2388
O=C(CNC(=O)c1ccc(-c2ccccc2)cc1)OCc1ccc(Cl)cc1	-28	-4.1	19	-5	6	18	10682
Cc1cc(OCC(=O)c2ccc(Br)cc2)ccc1N1C(=O)CCC1=O	-17	0.1	1	-15	3	9	9933
Cc1cc(Br)cnc1NC(=S)Nc1ccc(F)cc1F	-11	11	5	-3	.	.	4840
CN=C(Nc1cccc(S(=O)(=O)N2CCOCC2)c1)c1ccccc1	-5	1.2	1	.	10	-4	?
CC(C)c1ccc(NC(=O)Cc2ccc(NC3=NC4CS(=O)(=O)CC4S3)cc2)cc1 (stereo unspecified)	-37	6.8	6	-14	-5	0	6566
CCCCNC(=O)c1cccc(NC(=O)C(=O)c2ccccc2NC(C)=O)c1	-14	5.2	4	8	14	10	2496
COc1cc(S(=O)(=O)NC2CCCCC2)ccc1F	0	1.3	-1	-12	0	16	10391
COc1ccccc1NS(=O)(=O)c1ccc(NC(=O)c2nc3ncccn3n2)cc1	-13	-1.0	-2	0	.	.	2528
Cc1c(C(=O)Nc2cccc(F)c2)cnn1-c1ccccc1	-64	-0.8	5	-10	7	7	3261
COCCN(Cc1ccccc1)C(=O)Cc1ccc(S(=O)(=O)N2CCOCC2)s1	-1	2.3	4	.	5	-5	5100
Cc1ccc(/C=C2/C(=O)NC(=O)N(C)C2=O)cc1	24	0.3	4	-5	-18	-3	2558
Cc1ccc(NCc2nnc(SCC(=O)Nc3ncc(C)s3)n2CC2CCCO2)c(C)c1 (stereo unspecified)	-22	-6.9	43	-11	4	7	8542
CN(C)CCCNc1cc(-c2ccccc2)nc2cc(-c3cccc(F)c3)nn12	0	6.4	6	7	.	.	4101
CCCCN(C(=O)c1cc2c(s1)CCCCC2)c1c(N)n(CCC)c(=O)[nH]c1=O	-3	1.5	4	.	1	2	4180
COc1ccc(NC(=S)NN2CCOCC2)cc1OC	-9	1.2	8	-6	-2	1	2068

Three records picked at random from those above:
SMILES	PrP UTR inh	RN4220 kill	ugtP null kill	BJeLR viability	Mtb hypoxia inh	Mtb hypoxia inh growth	Autofluor counter
CN(C)CCCNc1cc(-c2ccccc2)nc2cc(-c3cccc(F)c3)nn12	0	6.4	6	7	.	.	4101
COc1ccccc1NS(=O)(=O)c1ccc(NC(=O)c2nc3ncccn3n2)cc1	-13	-1.0	-2	0	.	.	2528
Cc1cc(Br)cnc1NC(=S)Nc1ccc(F)cc1F	-11	11	5	-3	.	.	4840

Further structures follow:
SMILES	PrP UTR inh	RN4220 kill	ugtP null kill	BJeLR viability	Mtb hypoxia inh	Mtb hypoxia inh growth	Autofluor counter
Nc1cccc(C(=O)O)c1	4	26	6	-28	-1	-4	5859
O=C(NCCNc1ccc([N+](=O)[O-])cc1Cl)c1ccccc1F	1	5.7	6	-10	5	7	4191
Cc1cc(C(=O)N(C)CC(=O)Nc2ccc(Cl)c(C(F)(F)F)c2)no1	-11	6.0	9	2	3	0	5600
COc1cc(/C=C/C(=O)OCC(=O)N2CCc3ccccc3C2)ccc1O	2	3.2	3	-6	4	7	9229
N#CC1=C(N)OC2=C(C(=O)CCC2)[C@]12C(=O)N(CC(N)=O)c1ccccc12	-15	0.1	-1	1	8	8	3821
O=C(NCC1CCCO1)c1ccc2[nH]c3c(c2c1)CCCC3 (stereo unspecified)	-22	2.3	0	.	3	2	6445
C=C1CCC(C)C(C)(CCC2=CCOC2=O)C/C=C\C=C/1C(=O)O (stereo unspecified)	-15	.	.	5	.	.	5469
CC1(C)C(=O)NCCN1C(=O)CC1C(=O)NCCN1CC(c1ccccc1)c1ccccc1 (stereo unspecified)	2	0.3	8	6	-5	12	3515
CCCN(CC1CCCO1)C(=O)c1cc(COc2cccc(OC)c2)on1 (stereo unspecified)	-35	2.8	7	3	10	-1	?
NC(=O)C1CCCN(C(=O)Nc2cccc3ccccc23)C1 (stereo unspecified)	2	1.8	-1	-2	.	.	2620
CCOC(=O)N1CCN(C(=O)CSCc2ccc(C)cc2)CC1	-10	2.0	-3	-5	-16	2	2455
CN(C)/C=C/C(=O)c1ccc(-n2cccc2)cc1	-74	4.4	6	2	8	11	4377
CSc1nc(-c2ccccc2)nn1S(=O)(=O)c1ccccc1	36	0.6	4	2	.	.	2099
O=C(CCSc1nc2cc(Cl)ccc2o1)N1CCOCC1	-7	-0.6	-4	3	25	19	3103
Cc1ccc2c(c1)C(=NC1CCCCC1)c1cc3ccccc3nc1-2	-144	4.2	12	-16	5	3	2527
C=CCn1c(=O)[nH]c(=O)c2c(N)c(C(=O)c3ccc(OC)cc3)sc21	-3	-1.3	3	.	-16	7	3364
Cc1c(Cl)c(-c2n[nH]c(=S)n2Cc2ccco2)nn1C	-20	4.7	11	-6	.	.	3592
CSc1scc2c1-c1nc(SCC(=O)C(C)(C)C)ncc1CC2	-10	2.6	-12	-10	7	5	5529
Cc1nc2nc(-c3ccccc3)cn2nc1C	-44	7.2	2	20	-7	-7	7621
CCC(C)Nc1nc(-c2ccccn2)nc2ccccc12 (stereo unspecified)	17	-2.4	-7	-5	23	19	2900

An excerpt of these results, bar-delimited:
smiles | PrP UTR inh | RN4220 kill | ugtP null kill | BJeLR viability | Mtb hypoxia inh | Mtb hypoxia inh growth | Autofluor counter
O=C(CCSc1nc2cc(Cl)ccc2o1)N1CCOCC1 | -7 | -0.6 | -4 | 3 | 25 | 19 | 3103
Cc1ccc2c(c1)C(=NC1CCCCC1)c1cc3ccccc3nc1-2 | -144 | 4.2 | 12 | -16 | 5 | 3 | 2527
C=CCn1c(=O)[nH]c(=O)c2c(N)c(C(=O)c3ccc(OC)cc3)sc21 | -3 | -1.3 | 3 | . | -16 | 7 | 3364
Cc1c(Cl)c(-c2n[nH]c(=S)n2Cc2ccco2)nn1C | -20 | 4.7 | 11 | -6 | . | . | 3592
CSc1scc2c1-c1nc(SCC(=O)C(C)(C)C)ncc1CC2 | -10 | 2.6 | -12 | -10 | 7 | 5 | 5529

The listing continues:
SMILES	PrP UTR inh	RN4220 kill	ugtP null kill	BJeLR viability	Mtb hypoxia inh	Mtb hypoxia inh growth	Autofluor counter
O=C(CSc1ncn(-c2ccccc2)n1)Nc1ccc2c(c1)OCO2	-8	8.7	-2	-3	4	2	10774
COc1ccccc1C(=O)N/N=C(\C)CC(=O)Nc1ccc2c(c1)OCCO2	11	.	.	-6	.	.	6003
CC(C)N(CCNC(=O)COc1ccc2oc3c(c2c1)CCCC3)C(C)C	-17	-1.3	2	8	12	-3	4603
CCOC(=O)c1sc2nccc(N(C)C)c2c1N=CNOC	-23	6.8	-4	-5	.	.	2614
Cc1ccc(NC(=O)CCCc2ccccc2)nc1	1	11	5	-7	3	2	4566
Clc1c(-c2ccccc2)nc2ccccn12	-57	.	.	3	.	.	2937
CCN(CC(=O)NCc1ccc(F)cc1)C(=O)c1ccc(C)o1	-25	1.2	4	3	2	9	5249
COCCCN1C(=O)c2ccc(C(=O)Nc3ccccc3OC)cc2C1=O	-12	0.8	6	-3	2	3	3761
CN1C(=O)/C(=C/c2cc(N=Nc3ccccc3)ccc2O)SC1=S	-17	18	0	15	10	0	9818
C/C(=N\NC(=O)c1ccoc1C)c1cccc2ccccc12	-16	.	.	-7	.	.	5907
COC(=O)[C@H](CCSC)NC(=O)Nc1cccc(Br)c1	-13	5.0	7	11	17	-2	6062
CCNc1nc(NCC)n2c(SCC(=O)Nc3cccc(F)c3)nnc2n1	-21	3.5	-1	7	10	11	6098
O=C(Cc1cccc2ccccc12)NCCc1ccccc1	-9	-0.1	5	1	17	3	3701
O=C(NCC(=O)N1CCN(C(=O)c2ccccc2)CC1)c1ccc(Cl)cc1Cl	-13	-2.3	1	.	-11	2	3951
O=c1cc(/C=C/c2ccccc2)oc2c1ccc1ccccc12	-1	.	.	-1	.	.	2042
O=C(Cn1c(=O)n(Cc2ccco2)c(=O)c2c3c(sc21)CCCC3)Nc1ccccc1	-7	-12	-8	11	.	.	2482
CC(NC(=O)Cc1cccs1)c1ccncc1 (stereo unspecified)	-18	6.9	4	3	7	4	24187*
O=C(/C=C/c1ccc([N+](=O)[O-])cc1)N1CCN(c2ccccc2F)CC1	-23	.	.	4	.	.	10571
COc1ccc(N(C(=O)c2ccco2)C(C(=O)NC2CCCC2)c2ccncc2)cc1OC (stereo unspecified)	-46	5.0	7	-6	-10	5	3710
COc1ccc(N=C2SC(C(=O)N3CCN(c4ccc([N+](=O)[O-])cc4)CC3)CC(=O)N2C)cc1 (stereo unspecified)	-28	5.3	-4	0	-3	2	2503
COc1cc(C)c(NC(c2ccccc2)c2ccccc2)cc1OC	-25	-0.7	22	-3	15	4	4753
CCOC(=O)N1C2=NC(C(=O)OC)=C(C(=O)OC)C3Nc4ccccc4[C@]23CC1C(=O)OC (stereo partly specified)	.	2.4	-1	.	0	2	.
COC(=O)c1ccccc1NC(=O)C1CC(=O)N(c2ccc(C)cc2)C1 (stereo unspecified)	-14	7.3	9	-5	7	8	5927
COc1ccc(CN(C(C)=O)c2cccc(C)c2C)cc1	-46	-9.6	-8	-2	5	10	3438
N#C/C(=C\c1ccc(N2CCOCC2)cc1)c1ccccc1	-69	0.2	11	-7	4	7	2241
COCCCNC(=S)NCCc1ccc(F)cc1	-6	0.6	3	-7	-5	2	3557
CCn1cc(Br)c(C(=O)Nc2ccccc2C(=O)OC)n1	0	3.0	-4	-6	-3	10	1963
Nc1nc(-c2ccc(Cl)cc2)c(N=Nc2ccc(S(=O)(=O)N3CCOCC3)cc2)s1	-21	-2.0	3	10	7	4	10448
Cc1nc(C)c(C(=O)NNS(=O)(=O)c2ccc3ccccc3c2)s1	4	6.8	14	0	-8	3	2607
O=C1OC(N2C(=O)CC[C@H]2C(=O)Nc2ccc(Br)cc2F)c2ccccc21 (stereo partly specified)	-16	5.1	-9	2	.	.	5763
O=c1[nH]c(C2CCN(S(=O)(=O)Cc3ccccc3)CC2)nc2c1nnn2Cc1ccccc1Cl	-12	4.1	8	-6	19	6	2974
COc1ccc(C2C=CCN(S(=O)(=O)c3cccc4cccnc34)CC(=O)N2Cc2ccc(F)cc2)cc1 (stereo unspecified)	.	7.4	8	.	17	14	.
CN1CCN(c2ccc3nccnc3c2)CC1	-11	3.5	2	1	10	3	4424
CC1CCCC(C)N1C(=O)c1ccccc1Nc1ccc(SC(F)F)cc1 (stereo unspecified)	-22	0.8	-23	-11	0	-5	3689
COC(=O)CSc1nc(N2CCOCC2)c2c(c1C#N)CC(C)(C)N(C)C2	2	-3.6	-3	-2	2	5	3105
COc1cc(C(=O)OCCNC(=O)c2cccnc2)cc(OC)c1OC	-5	-0.6	4	.	4	3	3116
COc1cc(S(=O)(=O)N2CCN=C2c2ccccc2)ccc1F	-16	-1.6	-5	7	4	0	11100
COc1ccc(NS(=O)(=O)c2ccc(C(=O)N3CCCCCC3)cc2)cc1	7	5.1	2	.	7	3	3700
CCN(CC(=O)Nc1c(F)cccc1F)C(=O)c1ccc(C)c(S(=O)(=O)N2CCCCC2)c1	-12	-2.3	2	-4	0	11	5552
CCC(C)N=CC1=C(O)CC(c2ccccc2)CC1=O (stereo unspecified)	-47	9.9	6	8	14	9	3316
C/C(=N/NS(=O)(=O)c1cc(C)ccc1C)c1ccncc1	-17	.	.	2	.	.	5842
O=C(CS(=O)(=O)c1ccccc1)Nc1ccc(S(=O)(=O)Nc2ncccn2)cc1	-19	5.5	2	-4	2	2	4207
CC(C)c1ccc(S(=O)(=O)NC2CCCC2)cc1	-2	3.8	0	-1	13	-3	.
Cc1ccc2cccc(OC(=O)N(C)c3ccccc3)c2n1	-21	-11	-4	-1	26	10	3215
Cc1csc(SCC(=O)NC2CCS(=O)(=O)C2)n1 (stereo unspecified)	-5	3.7	8	.	13	-7	3105
CCN(CC)C(=O)c1nc[nH]c1C(=O)N(CC)CC	-15	3.9	-3	.	5	8	4064
CC1CCN(c2oc(-c3cccc4ccccc34)nc2C#N)CC1	-45	0.8	-4	5	1	12	5690
CN(C)c1ccc(-c2nnn(Cc3ccccc3Br)n2)cc1	-32	2.3	13	0	11	1	5055

Screening data (PubChem BioAssay)
